Mtb H37Rv: Mycobacterium tuberculosis H37Rv growth inhibition, putative kinase inhibitor library, confirmatory dose response (AID 2842); M. tuberculosis H37Rv growth inhibition; higher % means a stronger effect; some inactives read as strong as hits; inhibition, % at 10 µg/mL, or IC90 in µg/mL where a hit was titrated; 24,000 compounds, 5.2% hits;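 active = confirmed in a dose series; about a fifth of its hits are not listed in these tables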;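 note: bacteria incubated one week before Alamar blue readout; 0% = bacteria only wells and 100% = bacteria with high antibiotic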
* marks the source's active call; other numbers are inactive results. Some of the compounds tested; rates above refer to the full screens.

Compound	Mtb H37Rv
CC(=O)Oc1cccc(/C=C2\C(=O)NC(=S)N2C(C)=O)c1	71%
Cc1ccc(N2CN=C3SCC(=O)N3C2)cc1	-7%
Cc1ccccc1Cn1cc(S(=O)(=O)c2ccc(F)cc2)c(=O)c2cc3c(cc21)OCO3	3%
COc1ccc(OC)c(NC(=O)c2cnc3scc(C)n3c2=O)c1	2%
COc1cc(C(=O)Nc2ccc3c(c2)OCO3)cc(OC)c1OC	5%
CCOC(=O)c1nn(-c2ccc(OC)cc2)c(=O)c2c(NC(=O)CCC3CCCCC3)scc12	25%
Cn1c(SCC(N)=O)nc2c1c(=O)[nH]c(=O)n2C	15%
CCCc1cc(=O)[nH]c2nnc(SCc3ccc(C(F)(F)F)cc3)n12	6%
O=C(CSc1nnnn1-c1ccccc1)c1ccc2c(c1)OCO2	-2%
COc1ccc(S(=O)(=O)c2nnn3c2nc(Nc2cccc(C)c2)c2ccccc23)cc1	-7%
CC1(C)Cc2c(sc(NC(=O)c3ccc4ncsc4c3)c2C(N)=O)C(C)(C)N1	-3%
O=C(CSc1nnc(CNC(=O)c2c(F)cccc2F)o1)Nc1ccc2c(c1)OCCO2	-18%
COc1ccc(CC(=O)NCCc2cc3ccc(C)cc3[nH]c2=O)cc1	4%
O=C(O)c1c[nH]c2ccc(F)cc2c1=O	-13%
COc1ccccc1-n1c(=O)[nH]c2c(C(N)=O)nc(-c3sccc3C)nc21	3%
O=C(NCCc1csc2nc(-c3ccc(Cl)cc3)nn12)c1cccc(Cl)c1	-3%
Cc1c(/C(O)=C2\C(=O)C(=O)N(CCN(C)C)C2c2cccnc2)cnn1-c1ccccc1 (stereo unspecified)	-10%
COc1ccc(C2=N/C(=C/c3cccnc3)C(=O)O2)cc1OC	-4%
COc1cc(C(=O)Nc2sc3c(c2-c2nc4ccccc4s2)CCCC3)cc(OC)c1OC	4%
Cc1cccc(NC(=O)CSc2c(C)[nH]c3ccccc23)c1	13%
CCS(=O)(=O)c1ccc(C(=O)Nc2ccc(OC)c3ccccc23)cc1	-8%
Cc1cccc(C)c1NC(=S)NNc1nc(N2CCOCC2)nc(N2CCOCC2)n1	-14%
CCCCOc1ccc(C(=O)NCCc2cc3ccc(C)c(C)c3[nH]c2=O)cc1	-1%
Cc1cc(O)c(C(c2ccncc2)c2c(O)cc(C)[nH]c2=O)c(=O)[nH]1	-1%
Cc1c(CCC(C)C)c(NCCN(C)C)n2c(nc3ccccc32)c1C#N	10%
Clc1ccc(-c2nnc(Nc3nc4cc5c(cc4s3)OCO5)o2)cc1	-1%
CC(=O)Cn1c(=O)c2c(nc3n(-c4cc(C)ccc4C)c(C)c(C)n23)n(C)c1=O	1%
CC(=O)c1cccc(N/C=C(\C#N)c2nc(-c3cccc4ccccc34)cs2)c1	1%
Cc1ccccc1OCC(O)Cn1c(N2CCOCC2)nc2c1c(=O)[nH]c(=O)n2C (stereo unspecified)	-4%
O=C1N/C(=N/c2ccccn2)SC1Cc1ccc(Cl)c(Cl)c1 (stereo unspecified)	68%
O=C(Nc1nnc(-c2ccccc2)o1)c1cc(-c2cccs2)nc2ccccc12	0.72µg/mL*
CSc1nc2ccc3nc(NC(=O)CN4C(=O)CCC4=O)sc3c2s1	-6%
Cc1cccc(-c2nc3scc(CCNC(=O)c4cccs4)n3n2)c1	6%
COc1cccc2c(=O)n(CC(=O)Nc3cc(C)cc(C)c3)ccc12	-4%
COc1ccccc1C(=O)NCCc1cc2cc(C)c(C)cc2[nH]c1=O	-4%
Cc1ccccc1N1CCCn2c1nc1c2c(=O)n(CC(=O)O)c(=O)n1C	-9%
N#C/C(=N\Nc1cc(C(F)(F)F)ccc1Cl)c1nc(-c2cccc([N+](=O)[O-])c2)cs1	-6%
Cc1c(/C(O)=C2\C(=O)C(=O)N(CCN(C)C)C2c2ccco2)cnn1-c1ccccc1 (stereo unspecified)	-10%
O=C(c1ccc(Br)o1)N1CCN(c2ccc(N3CCOCC3)nn2)CC1	-3%
COc1cccc(Cn2cc(C(=O)c3ccc(OC)c(OC)c3)c(=O)c3cc4c(cc32)OCCO4)c1	39%
COc1cccc2sc(Nc3nnc(-c4cccs4)o3)nc12	3.4µg/mL*
CN(C)S(=O)(=O)N1CCN(C(=O)c2ccccc2Cl)CC1	-5%
CN(C)Cc1nc2c([nH]1)c(=O)n(C)c(=O)n2C	-2%
Nc1ncnc(Nc2ccc(Cl)cc2C(=O)c2ccccc2Cl)c1[N+](=O)[O-]	10%
CCOc1ccccc1NC(=O)c1oc2ccccc2c1NC(=O)Cc1ccccc1	-10%
COc1ccc(C(=O)CSc2nc(N)c(NC(=O)c3ccc(OC)c(OC)c3)c(=O)[nH]2)cc1	-13%
Cc1ccc(NC(=O)c2oc3ccccc3c2NC(=O)c2cc3ccccc3oc2=O)cc1	18%
O=[N+]([O-])c1ccc(N2CCN(S(=O)(=O)/C=C/c3ccccc3)CC2)cc1	-8%
CCCC(=O)Nc1c(C(=O)Nc2ccc(OCC)cc2)oc2ccccc12	-2%
CCOC(=O)c1nn(-c2ccc(OC)cc2)c(=O)c2c(NC(=O)c3cccc([N+](=O)[O-])c3)scc12	-3%

Seven compounds already listed, ordered by count of non-hydrogen atoms, lowest first.
Compound	Mtb H37Rv
O=C1N/C(=N/c2ccccn2)SC1Cc1ccc(Cl)c(Cl)c1 (stereo unspecified)	68%
COc1ccc(OC)c(NC(=O)c2cnc3scc(C)n3c2=O)c1	2%
CCCc1cc(=O)[nH]c2nnc(SCc3ccc(C(F)(F)F)cc3)n12	6%
O=[N+]([O-])c1ccc(N2CCN(S(=O)(=O)/C=C/c3ccccc3)CC2)cc1	-8%
Cc1ccccc1Cn1cc(S(=O)(=O)c2ccc(F)cc2)c(=O)c2cc3c(cc21)OCO3	3%
COc1cc(C(=O)Nc2sc3c(c2-c2nc4ccccc4s2)CCCC3)cc(OC)c1OC	4%
CCOC(=O)c1nn(-c2ccc(OC)cc2)c(=O)c2c(NC(=O)CCC3CCCCC3)scc12	25%

New compounds follow
Compound	Mtb H37Rv
C=CCOC(=O)C1=C(C)Nc2[nH]c(=O)[nH]c(=O)c2C1c1ccc(Cl)c(Cl)c1 (stereo unspecified)	-6%
CCOC(=O)c1c(NC(=O)c2ccc(N(C)C)cc2)sc2c1CC(C)(C)NC2(C)C	1%
CCOc1ccc(C(=O)Nc2c(N)nc(SCC(=O)N(CC)CC)[nH]c2=O)cc1	-4%
Nc1c(C(=O)Nc2cccc3ccccc23)sc2nc3c(cc12)C(=O)CCC3	-6%
CC1=C(C(=O)Nc2ccc(Cl)cc2)C(c2ccncc2)n2ncnc2N1 (stereo unspecified)	-9%
O=C1CC(NS(=O)(=O)c2ccccc2F)CN1c1ccc2c(c1)OCCO2 (stereo unspecified)	0%
O=C(Nc1ccc(S(=O)(=O)Nc2nccs2)cc1)c1ccc(-c2ccccc2)cc1	3%
NS(=O)(=O)c1ccc(CCNC(=O)C(=O)NCC(c2cccs2)N2CCc3ccccc32)cc1 (stereo unspecified)	75%
O=C(CSc1nnc(-c2ccncc2)o1)Nc1ccccc1	-15%
CCCSc1nnc(NC(=O)c2ccc3ccccc3c2)s1	7%
CC(O)Cn1c(N/N=C/c2ccc(O)cc2O)nc2c1c(=O)[nH]c(=O)n2C (stereo unspecified)	-5%
CCOc1ccccc1NC(=O)c1oc2ccccc2c1NC(=O)CC(c1ccccc1)c1ccccc1	2%
COc1cc([N+](=O)[O-])ccc1NC(=O)c1ccc(S(=O)(=O)N2CCc3ccccc3C2)cc1	13%
COc1cc2ccccc2cc1C(=O)Nc1nnc(-c2ccc(F)cc2)o1	5.6µg/mL*
COc1ccccc1C1NC(=O)NC(C)=C1C(=O)Nc1ccc(F)c(F)c1 (stereo unspecified)	25%
Cc1cccnc1Nc1ncnc(N)c1[N+](=O)[O-]	2%
Nn1c(SCC(=O)Nc2ccccc2)nnc(Cc2ccccc2)c1=O	7%
O=C(CSc1ccc(-c2ccc3c(c2)OCO3)nn1)NCc1ccccc1	3%
N/C(=N\OC(=O)c1ccccc1F)c1ccccn1	19µg/mL*
O=C(O)c1ccc(Nc2nc(-c3ccccc3)c3cc(Br)ccc3n2)cc1	28%
O=C(CCn1c2ccccc2c2ccccc21)N/N=C/c1cccc(Br)c1	2%
O=C(N=Nc1c(O)[nH]c2ccccc12)c1ccccc1	10%
CC(=O)Nc1cccc(NC(=O)C(=O)NCC2COC3(CCCC3)O2)c1 (stereo unspecified)	-1%
CCc1ccc(NC(=O)CSc2ccnc3c2c(=O)n(C)c(=O)n3C)cc1	-1%
O=C(Nc1cc2c3c(c1)CCC(=O)N3CCC2)c1ccc2ccccc2c1	68%

Later entries
molecule,Mtb H37Rv
O=C(COc1ccc(Cl)cc1Cl)Nc1nc(-c2ccc(Br)s2)cs1,57%
CCOC(=O)CSc1nnc(CNC(=O)c2ccc([N+](=O)[O-])cc2)n1C,6%
Cc1ccccc1C(=O)Nc1nnc(-c2ccc(Cl)cc2)o1,0.55µg/mL*
Cc1cc(NS(=O)(=O)c2ccc(NC(=O)CCCOc3ccc(Cl)cc3)cc2)no1,19µg/mL*
Fc1cccc2sc(Nc3nc4cc5c(cc4s3)OCO5)nc12,11µg/mL*
O=C(NCCCN1CCCC1=O)C(=O)Nc1cc2c3c(c1)CC(=O)N3CCC2,-5%
CCCCSc1nc2c(c(=O)[nH]1)C(c1ccncc1)C1=C(CC(C)(C)CC1=O)N2 (stereo unspecified),14%
O=C(CSc1nc2c(c(=O)n1-c1ccc(Cl)cc1)SCC2)Nc1cccc(C(F)(F)F)c1,16%
O=C(Nc1ccc2c(c1)N(C(=O)C1CC1)CCC2)c1ccc([N+](=O)[O-])cc1,4%
CCS(=O)(=O)c1ccc(C(=O)Nc2cc(C)on2)cc1,5%
Cc1ccc(C(=O)Nc2c(N)nc(SCC(=O)Nc3ccccc3F)[nH]c2=O)cc1,-2%
CCOC(=O)Cn1c(=NC(=O)c2ccccc2OC)sc2cc(S(N)(=O)=O)ccc21,1%
Nc1c(C(=O)NCc2ccc3c(c2)OCO3)sc2nc(-c3cccs3)c3c(c12)CCCC3,1%
Cc1cn2c3c(=O)n(Cc4ccccc4)c(=O)n(C)c3nc2n1-c1ccccc1,7%
O=C(Cc1ccccc1)Nc1ncc(Cc2cc(Cl)ccc2Cl)s1,-9%
Cc1ccc(NC(=O)CSc2nnc(-c3ccncc3)n2N)cc1,5%

Gathered by group: the entries above containing a cyano group (3)
molecule,Mtb H37Rv
Cc1c(CCC(C)C)c(NCCN(C)C)n2c(nc3ccccc32)c1C#N,10%
CC(=O)c1cccc(N/C=C(\C#N)c2nc(-c3cccc4ccccc34)cs2)c1,1%
N#C/C(=N\Nc1cc(C(F)(F)F)ccc1Cl)c1nc(-c2cccc([N+](=O)[O-])c2)cs1,-6%

More entries:
molecule,Mtb H37Rv
Cc1ccc(Cc2nnc(SCC(=O)Nc3ccc(C)c(Cl)c3)n(N)c2=O)cc1,-2%
CC(=O)N1CCc2c(sc(NC(=O)c3ccc([N+](=O)[O-])s3)c2C(N)=O)C1,25%
CC(=O)Nc1c(C(=O)Nc2ccc(Cl)cc2)oc2ccccc12,4%
Cc1ccc(C(=O)NCCn2cc(SCC(=O)Nc3nnc(C)s3)c3ccccc32)cc1,12%
C=CCOc1ccccc1/C=C1/SC(N2CCN(C)CC2)=NC1=O,2%
COc1ccc(CNC(=O)Cc2csc(NS(=O)(=O)c3ccc(OC)cc3)n2)cc1,-8%
O=c1cc(N2CCc3ccccc3C2)[nH]c(=O)n1Cc1ccc(F)cc1,-4%
N#Cc1ccc(C(=O)Nc2nc(-c3nc4ccccc4s3)cs2)cc1,1%
Cc1ccc(Cc2nnc(SCC(=O)Nc3ccc(C)cc3)[nH]c2=O)cc1,-6%
O=C(NCCO)c1ccc(CSc2nc3sc4c(c3c(=O)[nH]2)CCCC4)cc1,-23%
CCOCC(=O)Nc1c(C(=O)Nc2ccc(Cl)cc2)oc2ccccc12,-3%
CCN1CCN(CC(=O)NC2CCCCC2)C(=O)C1=O,-7%
CC(=O)N1CCc2c(sc(NC(=O)c3sc4ccccc4c3Cl)c2C(N)=O)C1,11%
CCOC(=O)COc1ccccc1C1CC(c2ccccc2)=NN1C(=O)c1cccs1 (stereo unspecified),-6%
C=CCOC(=O)C1=C(C)NC(=O)NC1c1cccc(OC)c1OC (stereo unspecified),-2%
Cc1ccccc1C(=O)Nc1sc2c(c1C(N)=O)CCCCC2,36%
Cn1c(=O)[nH]c(=O)c2c1nc(N/N=C/c1ccc(Cl)cc1)n2CC(O)CO (stereo unspecified),-12%
CNS(=O)(=O)c1ccc2[nH]c(=O)cc(C)c2c1,-3%
CCCSc1nc2c(c(=O)[nH]c(=O)n2C)n1Cc1ccc(Cl)cc1,17%
CC(C)C(=O)Nc1c(C(=O)Nc2ccc([N+](=O)[O-])cc2)oc2ccccc12,-1%
COc1cccc(CNc2nc3c(-c4cccc(F)c4)nnn3c3ccccc23)c1,-7%
NC(=O)C1CCN(c2ncnc3c2c(-c2ccccc2)cn3-c2cccc(Cl)c2)CC1,6%
CC1CCCN(S(=O)(=O)c2ccc(C(=O)NNc3nc4c(Cl)cccc4s3)cc2)C1 (stereo unspecified),65%
CCn1c(/C(C#N)=C/c2cccc(O)c2)nc2ccccc21,-2%
COc1cccc2c(=O)n(CC(=O)Nc3ccc(F)cc3)ccc12,3%
CCCOC(=O)c1sc2nc3c(c(-c4ccco4)c2c1N)CCCC3,7%
Cc1c(C)n2c(SCC(=O)NCc3ccc(F)cc3)nnc2[nH]c1=O,12%
Cc1ccc(-n2nc3c(c2NC(=O)Cc2ccccc2)CS(=O)C3)cc1 (stereo unspecified),3%
O=C(CSc1nc2ccccc2[nH]1)Nc1ccc(Cl)cc1,41%
COc1cc2nc(Nc3cccc(Cl)c3)sc2cc1OC,49%
Cc1onc(-c2ccccc2Cl)c1C(=O)Nc1nnc(-c2ccc(Br)cc2)s1,8%
CCOc1ccc(-c2ccc(=O)n(CCNS(=O)(=O)c3ccc(C(C)=O)cc3)n2)cc1,4%

Screening results (PubChem BioAssay)
